# NPYLR7 agonist = activates Aedes aegypti NPYLR7 receptor; HEK293T NPYLR7/Galpha15, GCaMP6s calcium fluorescence; activation, % at 10 µM; actives 0.15% (n = 270,000); AID 1259423; in the data active means activation above about 40%;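 further: 0% = vehicle and 100% = reference agonist at the receptor; some compounds past the cut are filed as inactive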
# NPYLR7 agonist max-min = further read-out of NPYLR7 agonist, marked with its call; activation, %; measured here: Max-Min RFU normalised activation; some inactives read as strong as hits;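 span of the calcium signal over five minutes; 0% = vehicle and 100% = native peptide agonist; compound fluorescence can raise it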
# Starred values were filed as active, the others as inactive; & = joins results of further samples.
SMILES,NPYLR7 agonist,NPYLR7 agonist max-min
COc1ccc(CC(=O)Nc2ccc(Nc3ccc(-n4ccc(C)n4)nn3)cc2)cc1,-2.2,-8.5
O=S(=O)(c1ccc2c(c1)CCCC2)N(CCO)c1ccccc1,3.1,0.6
CNc1nc2nonc2nc1Nc1ccc(I)cc1,-11.9,-18.9
COc1ccc(-c2nc(SC(C)C(=O)NC(C)(C#N)C(C)C)n[nH]2)cc1 (stereo not given),1.9,-0.7
CCOC(=O)[C@H]1[C@@H](O)C(=O)NC12CCN(C(=O)OCc1ccccc1)CC2,2.6,13.8
Cc1sc2c(c1C)CN(Cc1ccco1)CN2C(=O)c1ccco1,-1.0,14.1
Cc1sc2nc(CN3CCN(C(C)C#N)CC3)[nH]c(=O)c2c1C (stereo not given),0.4,-1.6
O=C(Cc1nnc(NC(=O)c2ccco2)s1)NCc1ccccc1,-6.7,-7.9
O=C(Nc1ccc(F)c(NC(=O)c2ccoc2)c1)c1ccc2c(c1)OCO2,-2.7,-5.6
CCn1c(=O)c2c(nc3n(-c4ccc(F)cc4)c(C)c(C)n23)n(C)c1=O,1.6,1.4
Cc1nc(C2CN(CC(=O)Nc3nc4c(s3)CCC4)CCO2)n[nH]1 (stereo not given),3.9,2.4
Cc1ncsc1CCN(C)C(=O)[C@H]1Cc2ccccc2CN1,8.9,4.0
COc1ccc(NC2CCCN(C(=O)c3ccccc3SC)C2)cc1 (stereo not given),12.1,11.4
CCOCCC(=O)N1CCN(C)c2cc(F)ccc21,5.2,2.7
COCCn1c(O)c(C(C)=Nc2ccnn2C(C)C)c(=O)[nH]c1=S,1.9,10.1
CCc1c(C)sc2nc(Cc3nccn3CC)[nH]c(=O)c12,2.2,2.0
O=C(Nc1ccc(OC(F)(F)F)cc1)Nc1cccc2[nH]c([C@@H]3O[C@H](CO)[C@@H](O)[C@H](O)[C@H]3O)nc12,-2.1,15.7
CCN(Cc1ccncc1)C(=O)C(CO)c1ccccc1 (stereo not given),-8.0&-2.5&-3.6&1.2,-14.2&-8.1&-7.3&-27.1
O=[N+]([O-])c1ccc(Oc2ccc3ccccc3c2Cl)c([N+](=O)[O-])c1,-0.6,-4.8
Cc1cc(C)nc(NC(C)c2ccc(N3CCOCC3)cc2)n1 (stereo not given),-1.7,1.3
Cc1cccc(COCC2CN(C(=O)c3cc(C)ccc3Cl)CCO2)c1 (stereo not given),14.6,25.0
Cc1onc(-c2ccccc2Cl)c1C(=O)Nc1ccc(F)cc1,5.4,6.1
NC(=O)c1c(NC(=O)CCN2C(=O)SC(=Cc3cccs3)C2=O)sc2c1CCC2,4.1,14.1
COc1cccc(NC(=O)CCC(=O)N2CCN(c3ccccn3)CC2)c1,15.1,11.9
C#Cc1cccc(NC(=O)NCC(C)(C)N2CCS(=O)CC2)c1,7.2,5.4
Cn1c(C(C)(C)C)csc1=S,6.6,0.2
CC(C)(C)c1cc2nc(-c3ccccc3F)cc(C(=O)Nc3ccc(F)cc3)n2n1,-7.7,3.9
Cc1ccc(C(=O)Nc2c(C)nc3scc(C)n3c2=O)cc1,14.5,8.0
Cc1cc(=O)oc(C)c1C(=O)OC(C)c1nc2ccccc2n1C(F)F (stereo not given),9.0,8.8
Cc1ccccc1-c1cc2nc(NCCN3CCCC3)n(C)c(=O)c2s1,-2.9,-4.6
CCNC(=O)CSc1nnc(C2CCS(=O)(=O)C2)o1 (stereo not given),5.5,3.8
O=c1cc(CSc2ccccn2)n(CCc2ccccc2)c2nc3ccccc3n12,-0.9,-5.7
Cc1noc(C(C)N2CCN(Cc3cccnc3)CC2)n1 (stereo not given),2.1,2.3
CC(C)(C)CN1CC(N)CC1=O (stereo not given),-3.7,-3.0
Fc1ccc(C2=Nc3ncnn3C(c3ccco3)C2)cc1 (stereo not given),1.6&-1.0&24.1,-2.4&-1.3&13.3
C[C@@H](CN1CC(=O)NC(=O)C1)N1CC(=O)NC(=O)C1,-11.0,-15.1
Cc1ccnc(Nc2ccc(N3CCN(C(=O)/C=C/c4ccccc4)CC3)nn2)c1,10.2,4.4
COCCN(Cc1nc2sc(C(C)C)cc2c(=O)[nH]1)CC(O)Cc1ccccc1 (stereo not given),7.7,6.3
OC1(c2cccc(C(F)(F)F)c2)CCN(CC2CCOC2)CC1 (stereo not given),11.9,9.7
O=c1c2ccccc2nc2c3ccccc3c(SCc3ccco3)nn12,6.7,4.9
O=S(=O)(C1=Cc2ccccc2CC1)N1CCC2CCCCC2C1 (stereo not given),0.1,-0.6
CN1CCC(c2n[nH]c(=O)n2CC2CCCCC2)CC1,5.2,3.4
CCCc1ccc(C(=O)NC(C)CC2=CCCN(C)C2)cc1 (stereo not given),5.1,4.2
Cc1nc(NCCNC(=O)c2ccccc2)cc(N(C)C)n1,0.9,0.6
CNc1cncc(-c2ccccc2N(C)C)n1,-0.8,0.8
O=C(NC[C@H]1C[C@H]2C=C[C@H]1C21CC1)c1cc(COc2ccc(F)cc2F)on1,4.8,2.4
Cc1ccc(N=C2NC(=O)C(Cc3nc(C)nn3-c3ccc(F)cc3)S2)cc1 (stereo not given),-4.1,-10.5
O=C(CNC(=O)c1ccc(C(F)(F)F)cc1)Nc1ccc2c(c1)OCCCO2,9.7,5.8
CCN1CCN(C(=O)Cn2c(=O)n(-c3ccc(OC)cc3)c(=O)c3ccccc32)CC1,32.3,31.1
CC(NCc1cc(=O)n2cc(Br)ccc2n1)c1cc(F)c(Cl)cc1Cl (stereo not given),16.0,13.2
COc1ccc(/C=C2/C(=N)N3N=C(c4ccccc4)SC3=NC2=O)cc1,0.2,0.1
Cc1noc(C)c1C(=O)N1CSCC1C(=O)N1CCSCC1 (stereo not given),0.2,30.1
O=C(CSc1ccc2nnc(CCNC(=O)c3ccccc3)n2n1)NCCc1ccccc1,1.4,-5.3
O=C(CCN1Cc2ccccc2C1)N1CCOC2(CNCCOC2)C1 (stereo not given),0.1,-0.3
CC(=O)N1CCc2c(sc(NC(=O)C(C)C)c2-c2nc3ccccc3s2)C1,2.1,0.5
CN1CCC(N(C)CC(=O)N2CCC(Cc3cccc(C(N)=O)c3)C2)CC1 (stereo not given),0.7,11.4
O=C(NC1CCN(Cc2cc(F)cc(F)c2)CC1)C1CC2(CCNCC2)CN1 (stereo not given),8.7,4.5
CCCCC(CC)C(=O)NCCNC(=O)c1ncccc1O (stereo not given),1.9,-0.9
Cn1c(SCc2nc3ccccc3c(=O)[nH]2)nc2ccccc2c1=O,0.3,2.2
O=C(CN1C(=O)C2C3C=CC(C3)C2C1=O)N1CCCCCC1 (stereo not given),7.7,6.1
# New compounds follow
SMILES,NPYLR7 agonist,NPYLR7 agonist max-min
Cn1c(C(=O)NCC#N)ccc1-c1ccccc1Br,-1.4,-1.3
CCCc1nn(-c2ccc(C)cc2)c(OC(C)=O)c1-c1ccc(NC(=O)c2cccs2)cc1,-2.1,0.9
Cc1nc(-n2nc(C3CC3)cc2NC(=O)c2ccc(F)cc2F)[nH]c(=O)c1C,3.5,2.8
CCCCN1CC(c2nc3ccccc3n2CCOc2ccc(C)cc2)CC1=O (stereo not given),-6.1,-6.4
O=C(Nc1sc2c(c1C(=O)NC1CCCCC1)CCCC2)c1ccccc1,-2.1,-3.7
CC(C)CN1C(=O)N(C)C2(CCN(CC(C)Cc3ccc4c(c3)OCO4)CC2)C1=O (stereo not given),6.4,-3.0
COc1ccc(N2CCN(C(=O)C3CCCN(c4nc(Cc5ccc(F)cc5)ns4)C3)CC2)cc1 (stereo not given),-4.1,-0.6
COCCn1cc(NC(=O)Nc2cccc(C(C)=O)c2)c2ccccc21,12.9,5.7
C#Cc1cccc(NC(=O)CNC(=O)NC2CCSc3c(F)cccc32)c1 (stereo not given),-0.2,619.2
O=c1oc2ccc3ccccc3c2cc1-c1csc(Nc2cc(C(F)(F)F)ccc2Cl)n1,-4.5,-8.8
CCN(CC)c1cc(C(C)(C)C)nc(SCc2cccc(C(=O)N3CCN(C)CC3)c2)n1,3.7,4.2
CC1=NN(CCN2CCCCC2)c2nc3c(c(=O)n(Cc4ccccc4)c(=O)n3C)n2C1,22.9,25.8
Cc1ccccc1-c1csc2nc(CN(Cc3ccco3)CC(O)COC(C)(C)C)[nH]c(=O)c12 (stereo not given),14.7,16.0
COc1ccccc1NS(=O)(=O)c1ccc(Br)cc1,-5.5,-6.4
COc1ccc(F)c(CNC(=O)C(C)(C)NC(=O)c2cccs2)c1F,9.8,4.2
CCn1nc(C)c(NC(=O)CN2CCC2c2cccc(OC)c2)c1C (stereo not given),11.4,6.0
Cc1ccccc1NC(=O)N1CCC2(CC1)SCCN2C(=O)c1ccc([N+](=O)[O-])cc1,-5.0,6.2
CN(CC(=O)Nc1ccccc1Br)C(=O)c1ccco1,-6.9,15.3
CCOC(=O)c1sc(NC(=O)CCl)c(C(=O)OCC)c1C,-2.8,-4.0
COCCN(Cc1c(-c2ccccc2)nn(C)c1Oc1ccccc1Cl)CC(O)Cc1ccccc1 (stereo not given),6.0,3.1
COc1cc(C=C2N=C(c3cc(OC)c(OC)c(OC)c3)OC2=O)c([N+](=O)[O-])cc1OC,0.5,6.3
CCN1CCN(C(C)CNc2nccc(C(F)(F)F)n2)CC1 (stereo not given),-16.7,-13.9
CCc1nc2ccc(C(=O)Nc3ccc(Cl)c(Cl)c3)cn2c1N(C)CCCc1ccccc1,21.5,12.1
O=C(NCC1CC1)C1CSCN1C(=O)c1cc(F)c(Cl)cc1Cl (stereo not given),1.0,19.8
Cc1cc(C(=O)NCCN2CCCC(C)C2)c(C)s1 (stereo not given),-0.9,-1.3
CCCCn1c(=O)c2c(nc3n(Cc4ccco4)c(C)cn23)n(C)c1=O,0.9,-4.7
O=S(=O)(Nc1nccnc1N1CCN(S(=O)(=O)c2ccc3c(c2)OCCO3)CC1)c1ccc(C(F)(F)F)cc1,8.4,11.5
Cc1c(-n2cnc3ccsc3c2=O)c(=O)[nH]c2ccccc12,0.6,0.7
CN1CCCCC1CCC(=O)N(Cc1ccc2[nH]ccc2c1)C1CC1 (stereo not given),16.8,5.2
CC(=O)c1cccc(N=Nc2c(-c3ccccc3)[nH]n(-c3ccc([N+](=O)[O-])cc3)c2=O)c1,-1.7,-9.3
Cc1cccc(CSc2nc3cc(S(=O)(=O)N4CCCC4)ccc3n2C(C)C)c1F,8.7,1.4
Cc1ccc(C(=O)NCCc2nnc3ccc(SCC(=O)Nc4ccccc4)nn23)cc1,-26.3,-27.9

# 25 consecutive records already listed, for reference:
SMILES,NPYLR7 agonist,NPYLR7 agonist max-min
COCCn1cc(NC(=O)Nc2cccc(C(C)=O)c2)c2ccccc21,12.9,5.7
C#Cc1cccc(NC(=O)CNC(=O)NC2CCSc3c(F)cccc32)c1 (stereo not given),-0.2,619.2
O=c1oc2ccc3ccccc3c2cc1-c1csc(Nc2cc(C(F)(F)F)ccc2Cl)n1,-4.5,-8.8
CCN(CC)c1cc(C(C)(C)C)nc(SCc2cccc(C(=O)N3CCN(C)CC3)c2)n1,3.7,4.2
CC1=NN(CCN2CCCCC2)c2nc3c(c(=O)n(Cc4ccccc4)c(=O)n3C)n2C1,22.9,25.8
Cc1ccccc1-c1csc2nc(CN(Cc3ccco3)CC(O)COC(C)(C)C)[nH]c(=O)c12 (stereo not given),14.7,16.0
COc1ccccc1NS(=O)(=O)c1ccc(Br)cc1,-5.5,-6.4
COc1ccc(F)c(CNC(=O)C(C)(C)NC(=O)c2cccs2)c1F,9.8,4.2
CCn1nc(C)c(NC(=O)CN2CCC2c2cccc(OC)c2)c1C (stereo not given),11.4,6.0
Cc1ccccc1NC(=O)N1CCC2(CC1)SCCN2C(=O)c1ccc([N+](=O)[O-])cc1,-5.0,6.2
CN(CC(=O)Nc1ccccc1Br)C(=O)c1ccco1,-6.9,15.3
CCOC(=O)c1sc(NC(=O)CCl)c(C(=O)OCC)c1C,-2.8,-4.0
COCCN(Cc1c(-c2ccccc2)nn(C)c1Oc1ccccc1Cl)CC(O)Cc1ccccc1 (stereo not given),6.0,3.1
COc1cc(C=C2N=C(c3cc(OC)c(OC)c(OC)c3)OC2=O)c([N+](=O)[O-])cc1OC,0.5,6.3
CCN1CCN(C(C)CNc2nccc(C(F)(F)F)n2)CC1 (stereo not given),-16.7,-13.9
CCc1nc2ccc(C(=O)Nc3ccc(Cl)c(Cl)c3)cn2c1N(C)CCCc1ccccc1,21.5,12.1
O=C(NCC1CC1)C1CSCN1C(=O)c1cc(F)c(Cl)cc1Cl (stereo not given),1.0,19.8
Cc1cc(C(=O)NCCN2CCCC(C)C2)c(C)s1 (stereo not given),-0.9,-1.3
CCCCn1c(=O)c2c(nc3n(Cc4ccco4)c(C)cn23)n(C)c1=O,0.9,-4.7
O=S(=O)(Nc1nccnc1N1CCN(S(=O)(=O)c2ccc3c(c2)OCCO3)CC1)c1ccc(C(F)(F)F)cc1,8.4,11.5
Cc1c(-n2cnc3ccsc3c2=O)c(=O)[nH]c2ccccc12,0.6,0.7
CN1CCCCC1CCC(=O)N(Cc1ccc2[nH]ccc2c1)C1CC1 (stereo not given),16.8,5.2
CC(=O)c1cccc(N=Nc2c(-c3ccccc3)[nH]n(-c3ccc([N+](=O)[O-])cc3)c2=O)c1,-1.7,-9.3
Cc1cccc(CSc2nc3cc(S(=O)(=O)N4CCCC4)ccc3n2C(C)C)c1F,8.7,1.4
Cc1ccc(C(=O)NCCc2nnc3ccc(SCC(=O)Nc4ccccc4)nn23)cc1,-26.3,-27.9

# A portion of the library; count on the stated rates, not on these rows.
